BJeLR lethal – kills HRASV12-expressing BJeLR cells; BJeLR (HRASV12) viability, CellTiter-Glo ATP luminescence, 48 h; reference of the scale not given here; inhibition, % (test concentration not listed); 0.17% of 300,000 active;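 active = replicate mean above 50%; inconclusive = above 50% but judged a plate artefact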;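 also: 50 nL library stock added to about 25 µL; numbers are from one replicate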
Sa ugtP lethal – kills S. aureus RN4220 lacking UgtP; S. aureus RN4220 ugtP deletion, OD600 growth, 16 h; some inactives read as strong as hits; growth inhibition, % (concentration not given with the values); 0.54% of 330,000 active;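 active = z-score under -3 and OD600 up to 0.15 on both plates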;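 also: plate controls were untreated wells for no effect and antibiotic for full effect; wells of about 80 µL received 100 nL stock; the first replicate is given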
Sa RN4220 lethal – S. aureus RN4220 growth inhibition. OD600, 16 h. inhibition, % (test concentration not listed). 0.33% of 330,000 active;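 active = z-score of -3 or lower and OD600 up to 0.18 on both plates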;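 also: plate controls were untreated cells for no effect and reference antibiotic for full effect; stock transfer was 100 nL into about 80 µL; one replicate is shown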
Mtb hypoxia rep – reduces hypoxia-regulated biosensor signal in M. tuberculosis; M. tuberculosis hypoxia-regulated fluorescent reporter, fluorescence; AID 1159583; fluorescence inhibition, % (test concentration not listed); 0.1% of 300,000 active;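 active = 35 to 45% if threefold the growth effect, above 45% if 1.5-fold the growth effect; inactive = the rest, general growth blockers included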;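 also: wells of about 50 µL received 100 nL stock; 0% = vehicle wells and 100% = reference inhibitor wells; whole bacteria with a GFP reporter of the hypoxia response; strong numbers were not always called active; many hits fall short of the cut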
Bead autofluor – counter-screen for toxin protease inhibitors: compound fluorescence; compound autofluorescence counterscreen, microsphere flow cytometry; active compounds read high; 3.1% of 360,000 active; AID 624483; fluorescence intensity (test concentration not listed);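 active = at least 3 SD above the mean of all compounds, about 16000 in these data; inconclusive = too few beads counted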;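 also: 100 nL of 1 mM stock went into each well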
PrP 5UTR inh – inhibition of PrP 5' UTR reporter expression; cell-based PrP 5' UTR mRNA reporter, plate reader; inhibition, % (test concentration not listed); 0.35% of 340,000 active; AID 488862;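 active = every replicate at 50% or more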;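 also: 0 = median of the neutral control wells; tested in H4 reporter cells; numbers are from one replicate; inactives centre near -14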
Mtb hypoxia rep growth – recorded beside Mtb hypoxia rep, whose call it bears; growth inhibition, %; measured here: M. tuberculosis growth (absorbance);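 0% = vehicle and 100% = reference antibiotic; read after six days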
Starred values were filed as active, the others as inactive; ? = inconclusive; . = not tested or not shown.

SMILES	BJeLR lethal	Sa ugtP lethal	Sa RN4220 lethal	Mtb hypoxia rep	Mtb hypoxia rep growth	Bead autofluor	PrP 5UTR inh
O=C(NN=Cc1cccnc1)c1cc(-c2ccccc2Cl)nc2ccccc12	.	6	-1.5	0	-2	.	.
Cc1ccc(C)n1-c1ccc(C(=O)NC2CCN(Cc3ccccc3)CC2)cc1	2	9	4.6	-6	-1	8168	-11
CCn1c(CNC(=O)c2ccccc2)nnc1SCC(=O)N1CCN(c2ccccc2)CC1	3	3	4.7	1	9	3312	-15
Clc1ccc2c(NN=Cc3ccccc3Br)ccnc2c1	.	99*	98*	6	0	.	.
COc1cc2[nH]c(C(=O)Nc3ccc(F)cc3)cc2c(OC)c1OC	4	.	.	.	.	3134	-16
COC(=O)C1=C(N)Oc2cc(C)n(C)c(=O)c2C1c1ccc(Cl)cc1 (configuration not stated)	-1	-6	-2.3	-1	10	4150	-9
COc1ccc(C(=O)NCC(=O)N/N=C/c2c(C)[nH]c3ccccc23)cc1OC	4	.	.	.	.	4836	-9
COc1ccc(-c2cn3cccnc3n2)cc1Br	5	3	10	14	2	2546	-32
COc1ccc(CCN=Cc2c(C)[nH]n(-c3ccc([N+](=O)[O-])cc3)c2=O)cc1OC	9	-6	-0.7	12	3	2098	-15
Cc1ccc(CCS(=O)(=O)c2ccc(C(C)(C)C)cc2)cn1	-2	3	2.6	4	7	3404	-10
Cc1cc(C)n2nc(SC(C)C(=O)N3CCC4(CC3)OCCO4)nc2n1 (configuration not stated)	-10	4	5.9	5	6	24597*	-12
CCCC=C(CCC)C(NP(=O)(c1ccccc1)c1ccccc1)c1ccccc1 (configuration not stated)	.	-2	-2.7	3	-4	.	.
CCCOc1ccc(CNC(=O)C2CCN(c3nn4c(=O)cc(C)nc4s3)CC2)cc1	0	15	1.8	-12	1	4520	-18
Cc1c(Br)c([N+](=O)[O-])nn1C(C)C(=O)N1CCc2ccccc2C1 (configuration not stated)	4	8	0.2	4	10	5198	-6
O=C(COc1cc(=O)n2c(n1)SCCC2)c1ccccc1	3	5	1.4	.	.	.	-20
CCC(=O)N(Cc1cc(=O)[nH]c2ccccc12)c1ccc(OC)cc1	-6	11	3.4	14	5	3818	-19
CCOC(=O)COc1ccc(S(=O)(=O)N2CCc3ccccc3C2)cc1	10	4	7.9	8	8	7783	-30
CCC1CCCCN1CCCNS(=O)(=O)c1ccc2c(c1)oc(=O)n2C (configuration not stated)	-4	3	3.1	1	5	5392	-7
Cc1c2c([n+]3n1CCC3)CC(C)(C)CC2=O	11	12	3.1	10	4	10619	-25
CCCCn1c(=O)c2ccccc2c2ccccc2c1=O	.	39	-5.7	-2	3	4733	-4
CC/C(=N\O)c1ccc(OC)c(OC)c1	-7	.	.	.	.	5172	4
COc1ccc(C2OC(=O)CC2C(=O)NCc2ccccc2Cl)cc1OC (configuration not stated)	4	0	-4.2	2	-1	3921	-18
CC(=O)NC(=S)NNC(=O)CCc1ccccc1	0	8	8.2	7	5	3442	-27
Cn1c(=O)c(C(=O)CN2CCCc3ccccc32)c(N)n(Cc2ccccc2)c1=O	-11	-8	-7.7	8	20	4425	-7
Cc1ccc(CSCc2ccc(C(=O)O)o2)cc1	-11	0	4.1	12	-3	3779	-19
Cc1ccc(OCC(=O)Nc2ccccc2Sc2ccccc2)c([N+](=O)[O-])n1	3	-1	3.4	3	2	6612	13
COc1ccc(C(=O)Nc2cccc(OC(=O)c3ccco3)c2)cc1	1	0	3.0	-2	3	3107	-24
Cc1noc(C)c1S(=O)(=O)Nc1ccc(C(=O)NCCc2ccccc2)cc1	8	13	-5.2	.	.	4531	-13
CCC(c1nnnn1Cc1ccco1)N(Cc1cc2cc(OC)ccc2[nH]c1=O)C1CCCCC1 (configuration not stated)	-1	-30	6.0	-6	-3	2991	-16
O=[N+]([O-])c1cccc(C=Nc2cccc3ccccc23)c1O	1	.	.	.	.	3314	-10
CCN(Cc1ccccc1)S(=O)(=O)c1c(C)[nH]c(C)c1C(=O)N1CCCCC1	-9	10	2.7	16	11	5540	-10
Cc1ccccc1Cn1nc(C)c(NC(=O)c2noc3c2CCc2ccccc2-3)c1C	-6	11	-3.2	7	4	5308	-21
Nc1cc(Cl)nc(N/N=C/c2c(O)ccc3ccccc23)n1	-8	.	.	.	.	1846	-86
CC(C)(C)OC(=O)N1CCC(c2c(C(=O)NCC3CCN(C4CCCC4)C3)cnn2-c2cccc(Cl)c2)CC1 (configuration not stated)	-11	-8	0.2	-2	7	6161	-4
Clc1ccc(-c2ccnc(Oc3cc(Cl)ccc3Cl)n2)cc1	0	-16	-2.0	11	3	3083	-13
CCCCOC(=O)CSc1nc(N)c(C#N)c(-c2ccc(OC)cc2)c1C#N	-11	6	8.8	.	.	4606	-6
CC(=O)c1cc(CN2CCN(C(C)C)C(CCO)C2)cs1 (configuration not stated)	2	.	.	.	.	4328	-27
O=C(CN1C(=O)NC2(CCCCCC2)C1=O)c1ccccc1	-1	8	4.6	-1	1	5554	-10
COc1ccc(NC(=O)CN2C(=O)NC(C)(c3ccc(C)cc3)C2=O)cn1 (configuration not stated)	.	6	1.0	10	-5	6225	-28
CC1CCC(N2CCNCC2)CC1 (configuration not stated)	10	13	7.4	13	5	4246	31
CSc1ccc2nnc(-c3cccc(F)c3)n2n1	5	1	3.4	-1	4	10462	-3
C=CCn1c(CNC(=O)c2ccccc2F)nnc1SCC(=O)N1CCOCC1	8	-5	-3.3	4	2	?	2
Cc1cc(F)ccc1NC(=O)C(C)n1c2ccccc2c2nc(=O)cc(C)n21 (configuration not stated)	-7	4	-0.2	-5	1	4510	-14
CCCCn1c(=O)c(CCC(=O)OCC(=O)Nc2cccc3ccccc23)nc2ccccc21	-6	6	4.5	9	-1	9671	-21
Brc1ccccc1C=NN1CCCCC1	.	13	13	4	9	.	.
CCOc1ccc(NC(=O)NC(=O)N(C(C)C)S(C)(=O)=O)cc1	2	10	18	-2	2	3512	-4
O=C(NCc1ccc(Cl)cc1)c1ccncc1	-4	7	3.0	1	10	3535	-15
CCOC(=O)C1CCN(S(=O)(=O)c2ccc(C)c(C)c2)CC1	0	1	-0.6	-3	2	3949	-16
Cc1ccc2oc(C(=O)N(Cc3ccccc3)C3CCS(=O)(=O)C3)c(C)c2c1 (configuration not stated)	2	8	2.9	12	13	4565	-13
CCn1c(SCC(=O)NC2CC2)nnc1C(C)Oc1ccccc1 (configuration not stated)	3	11	4.7	12	11	4340	3

Look-ups from the entries so far:
`CCOC(=O)C1CCN(S(=O)(=O)c2ccc(C)c(C)c2)CC1` @ Mtb hypoxia rep = -3
`CSc1ccc2nnc(-c3cccc(F)c3)n2n1` @ Mtb hypoxia rep growth = 4
`O=C(NCc1ccc(Cl)cc1)c1ccncc1` @ Sa ugtP lethal = 7
`C=CCn1c(CNC(=O)c2ccccc2F)nnc1SCC(=O)N1CCOCC1` @ PrP 5UTR inh = 2
`Brc1ccccc1C=NN1CCCCC1` @ Sa ugtP lethal = 13
`CCOc1ccc(NC(=O)NC(=O)N(C(C)C)S(C)(=O)=O)cc1` @ Bead autofluor = 3512

The results go on.
SMILES	BJeLR lethal	Sa ugtP lethal	Sa RN4220 lethal	Mtb hypoxia rep	Mtb hypoxia rep growth	Bead autofluor	PrP 5UTR inh
CCOC(=O)C=Cc1ccc(C(F)(F)F)cc1S(=O)(=O)NC(C)(C)C	.	8	5.7	22	9	.	.
COc1cc(OC)cc(C(=O)Nc2cccc(NC(=O)c3ccccc3)c2)c1	2	3	-1.6	12	4	3674	-1
CCOc1ccc(NC(=O)CN(C)C(=O)C2=COCCO2)cc1OCC	5	1	0.4	-5	0	4384	-5
CC(=O)NCc1ccc(C(=O)CCl)cc1	-5	-7	7.0	1	9	3401	-21
COC(=O)C(N)CCCCN (configuration not stated)	10	7	3.9	.	.	5646	-1
CC(=O)c1cc2c(cc1NC(=O)Cn1nc(C)c(C)c(C#N)c1=O)OCO2	-3	5	3.9	8	-4	4877	-12
Cc1ccc(/C=C2\SC(=S)N(NS(=O)(=O)c3ccc(C)cc3)C2=O)cc1	-6	38	62	9	2	3659	-8
CCc1ccc(-c2cc(C(=O)NCc3ccccn3)c3ccccc3n2)cc1	-5	3	-1.0	11	10	2126	-26
Cc1ccccc1Cn1cc(NC(=O)c2noc3c2CC(C(C)(C)C)CC3)cn1 (configuration not stated)	-4	10	3.9	8	-3	16905*	4
CC1CCN(c2nc3ccc(C(=O)N4CCN(Cc5ccc6c(c5)OCO6)CC4)cc3s2)CC1	18	-8	2.1	-7	6	6026	-37
COC(=O)CSc1nc(C)c(C(=O)Nc2ccccc2C)c(-c2ccc(Cl)cc2)c1C#N	4	-5	3.2	.	.	2134	1
Cc1ccc(NC(=S)N(CCN2CCOCC2)Cc2cc3cc4c(cc3[nH]c2=O)OCCO4)cc1	1	2	1.7	-2	4	4237	-7
CCOc1ccccc1C(=O)Nc1ccc(-n2nncc2C(C)(C)C)cc1	1	0	1.0	-9	3	4203	-8
CC(C)c1ccccc1NC(=O)COC(=O)CCN1C(=O)/C(=C\C=C\c2ccccc2)SC1=S	-14	1	6.1	9	0	2544	0
O=C(C[C@H]1C[C@H](C(=O)N2CCCCC2)[C@@]2(CCc3ccccc3)c3[nH]c4cc(-c5ccco5)ccc4c3CCN2C1=O)NCCN1CCOCC1	.	-27	-0.1	-11	10	3211	4
COc1ccccc1-c1n[nH]c2c1[C@H](C)CC[C@H]2C(C)C	1	.	.	.	.	2457	-27
CN1CCN(S(=O)(=O)c2cccc([N+](=O)[O-])c2)CC1	.	-7	1.7	-2	13	20528*	-5
N#Cc1nc(COc2ccc(Cl)cc2)oc1N1CCN(Cc2ccccc2)CC1	2	2	-1.2	.	.	4152	-8
COc1cc2c(cc1OC)C(c1ccccc1O)NCC2 (configuration not stated)	23	9	7.2	3	0	3218	-8
COCCNC(=O)C1(C(F)(F)F)CC(CCCO)CCCO1 (configuration not stated)	0	-2	2.6	10	4	3423	-25
Cc1ccccc1/C=C/c1nc2ccccc2c(=O)n1CCc1ccccc1	12	-14	-6.9	3	2	6772	-5
CCNC(=O)CC1SC(=Nc2cccc(Cl)c2C)N(C)C1=O (configuration not stated)	-1	-2	1.8	-1	-8	16300*	-8
Cc1cccc(C)c1NC(=O)CSc1nnc(Cc2ccccc2)o1	-10	1	-3.4	.	.	3439	-11
CCOC(=O)C1(CC2CC2)CCN(C(=O)c2cc(C3CC3)nc3ccccc23)CC1	-2	-4	0.8	3	0	2010	-34
CCOC(=O)C1=NOC(Cn2cc(C#N)c(=O)n(C)c2=O)C1 (configuration not stated)	-2	11	7.9	16	-1	3294	-8
O=C(c1ccc2c(c1)OCO2)[C@@H]1[C@@H]2C(=O)N(C3CCCCC3)C(=O)[C@@H]2C2c3ccccc3C=CN21 (some centres not stated)	11	-7	-16	-9	12	3183	-9
CCC(CC)c1nnc(NC(=O)CCc2ccc(OC)cc2)s1	7	6	3.6	16	4	3288	-25
Cc1c(C(=O)N2CCN(S(=O)(=O)c3ccccc3)CC2)oc2ccc(Br)cc12	.	-1	3.7	5	3	3668	-15
O=c1[nH]c(COc2ccc(Cl)cc2Cl)nc2ccccc12	-7	0	0.6	5	5	6266	-78
O=C(/C=C/c1ccc([N+](=O)[O-])cc1)NCC1CCCO1 (configuration not stated)	-10	.	.	.	.	3394	-21
COc1cccc(C(=O)Nn2cnnc2)c1OC	-13	4	3.7	1	5	3798	-11
COC(=O)C(C)C1C[C@]1(C)C(NC(=O)OCc1ccccc1)c1ccccc1 (some centres not stated)	.	8	4.8	9	6	.	.
Cc1ccc(NC(=O)CCCc2c[nH]c3ccccc23)nc1	-2	11	-1.8	14	5	6463	-19
CC(C)(CNS(=O)(=O)c1ccc(F)cc1)CNS(=O)(=O)c1ccc(F)cc1	-7	0	8.0	9	5	3725	-17
CC(NC(=O)c1nc[nH]c1C(=O)NC(CCCCNC(=O)OC(C)(C)C)C(=O)OC(C)(C)C)C(=O)OCc1ccccc1 (configuration not stated)	.	-2	0.0	1	2	.	.

A different layout for part of the listing above.
Compound,BJeLR lethal,Sa ugtP lethal,Sa RN4220 lethal,Mtb hypoxia rep,Mtb hypoxia rep growth,Bead autofluor,PrP 5UTR inh
Cc1ccc(NC(=O)CCCc2c[nH]c3ccccc23)nc1,-2,11,-1.8,14,5,6463,-19
CC(C)(CNS(=O)(=O)c1ccc(F)cc1)CNS(=O)(=O)c1ccc(F)cc1,-7,0,8.0,9,5,3725,-17
